Screening results: PubChem, National Center for Advancing Translational Sciences (NCATS)
TRPML1 blocker: qHTS for Inhibitors of the Human Mucolipin Transient Receptor Potential 1 (TRPML1); Mucolipin-1 (Homo sapiens), Q9GZU1; TRPML1-inducible cells, Ca2+ dye fluorescence, FDSS; hits give low values; inhibition of EC80 agonist-evoked calcium signal; activity change, negative = inhibition, % (test concentration not listed); actives 0.02% (n = 390,000); in the data active means activity change below about -50%; inconclusive means about -30% to -50%; inactive means above about -30%;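 note: stimulus is agonist 54-4 at its EC80 concentration; % is set by controls: 0 for no effect and ±100 for the full control effect; compound concentration not given in the record; the text of the record puts the active cut at -80%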
Target sequence (Q9GZU1 whole entry, looked up): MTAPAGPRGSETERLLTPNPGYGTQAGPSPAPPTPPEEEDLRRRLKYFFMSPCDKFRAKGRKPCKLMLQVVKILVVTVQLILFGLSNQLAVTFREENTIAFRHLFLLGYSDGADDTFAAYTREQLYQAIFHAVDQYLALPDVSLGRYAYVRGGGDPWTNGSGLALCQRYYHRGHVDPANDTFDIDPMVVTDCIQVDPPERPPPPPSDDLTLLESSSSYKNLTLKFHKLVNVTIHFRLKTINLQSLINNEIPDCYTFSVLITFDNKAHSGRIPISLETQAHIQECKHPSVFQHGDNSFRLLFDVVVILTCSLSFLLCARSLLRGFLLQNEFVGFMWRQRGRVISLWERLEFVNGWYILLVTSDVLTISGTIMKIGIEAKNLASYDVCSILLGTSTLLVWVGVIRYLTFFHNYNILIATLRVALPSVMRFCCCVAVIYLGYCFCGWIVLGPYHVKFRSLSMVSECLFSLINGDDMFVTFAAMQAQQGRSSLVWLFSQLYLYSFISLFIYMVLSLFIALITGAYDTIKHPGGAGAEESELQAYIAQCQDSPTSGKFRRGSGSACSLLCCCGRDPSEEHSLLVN
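TRPML1-DL cells, Tet-induced overnight (~16 h, 37 °C) at 1,500 cells/well, were loaded with Ca8 no-wash dye plus quencher for 45-90 min at room temperature. Compounds were pinned during FDSS kinetic reading; agonist 54-4 at EC80 (4 uM final) then added.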
TRPML1 agonist: qHTS for Agonists of the Human Mucolipin Transient Receptor Potential 1 (TRPML1); Mucolipin-1 (Homo sapiens), Q9GZU1; TRPML1-expressing cells, Ca2+ dye fluorescence, FDSS; host cell line not named in the record; reference of the full effect not given here; activation, % (no concentration beside the values); actives 0.12% (n = 410,000); in the data active = activation above about 50%; inconclusive = about 30% to 50%; inactive = below about 30%; note: 0% is about no effect; the text of the record puts the active cut at 80%
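Tet-induced TRPML1-DL cells, 1,500 per well, cultured overnight, were loaded with a no-wash Ca2+ dye for 45–90 min. Calcium fluorescence was recorded on the FDSS for 110 s after compound addition, before the EC80 agonist (4 uM 54-4) was added.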
D2 agonist: Beta-Arrestin HTS for Positive Allosteric Modulators of the Human D2 Dopamine Receptor: Agonists; D(2) dopamine receptor (Homo sapiens), P14416; DiscoveRx PathHunter D2 beta-arrestin, luminescence, 90 min; 100% = 57 uM dopamine signal; activation, % (concentration not given with the values); actives 0.084% (n = 360,000); AID 624465, 2012; in the data active = activation above about 40%; inconclusive = about 15% to 40%; inactive = below about 15%; note: compound concentration not given in the record; the text of the record calls up to 30% inactive
Target sequence (P14416 whole entry, looked up): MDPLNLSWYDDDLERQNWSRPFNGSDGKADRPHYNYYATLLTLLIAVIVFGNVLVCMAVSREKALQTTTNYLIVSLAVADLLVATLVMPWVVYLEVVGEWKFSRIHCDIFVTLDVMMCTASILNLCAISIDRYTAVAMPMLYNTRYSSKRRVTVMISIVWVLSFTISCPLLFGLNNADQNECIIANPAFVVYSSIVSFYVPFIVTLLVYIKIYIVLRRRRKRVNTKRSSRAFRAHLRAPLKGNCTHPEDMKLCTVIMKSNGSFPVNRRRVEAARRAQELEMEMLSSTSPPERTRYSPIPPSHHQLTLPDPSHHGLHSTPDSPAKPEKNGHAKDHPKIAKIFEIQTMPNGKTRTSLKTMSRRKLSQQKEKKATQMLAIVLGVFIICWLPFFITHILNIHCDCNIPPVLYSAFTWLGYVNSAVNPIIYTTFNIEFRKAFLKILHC
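Agonist mode: compounds alone added to overnight-plated D2 PathHunter cells for 90 min at 37 C, with 57 uM final dopamine (EC100) defining full response. Beta-arrestin recruitment detected by chemiluminescent reagent, read after 1 h at ambient temperature.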
PINK1 expr mod: A Quantitative High throughput Screen to Identify Chemical Modulators of PINK1 Expression; PINK1 immunofluorescence, high-content cytometry, 24 h; Potency, µM (top dose mostly 76.6 µM), for inactives: at the highest dose activation (PINK1 increase), actives largely listed as activators; actives 0.2% (n = 410,000); AID 624263, 2012; active = well fitted activation curve with a large enough effect; inconclusive = small, poorly fitted or top-dose-only effect; inactive = flat fitted curve, though single readings scatter; cell line not stated here;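 note: potency is the fitted concentration of half-maximal effect; % of control where 0% means no effect; nearly all actives have a fitted effect of over 65% in size; a mitochondrial uncoupler was the plate control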
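Compound titrations (5 concentrations, 24 h) on a stable cell line; DMSO and CCCP controls. Endpoint: fixed-cell PINK1 immunofluorescence with mitochondrial, cell and nuclear markers, scanned by microplate cytometer.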
Six1-Eya2 inh: qHTS Assay for Inhibitors of the Six1/Eya2 Interaction. Homeobox protein SIX1 (Homo sapiens) + Protein phosphatase EYA2 (Homo sapiens), …. AlphaScreen GST-Six1/His-Eya2 binding, biochemical; hits give low values; control for the full effect not named in the record. activity change, % (test concentration not listed). actives 0.56% (n = 360,000). AID 651725, 2012; in the data active = activity change below about -65%; inconclusive = about -30% to -65%; inactive = above about -30%; note: % is set by controls: 0 for no effect and ±100 for the full control effect; compound concentration not given in the record
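AlphaScreen with GST-Six1 and His-Eya2 (5X mix: 250 nM and 500 nM), glutathione donor and nickel acceptor beads; buffer 50 mM Tris pH 8.0, 300 mM NaCl, 1 mM TCEP; 1 h at 37 C in the dark.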
CtBP-E1A blk: qHTS Assay for Inhibitors of the CtBP/E1A Interaction; AID 651724, 2012; activity change, % (no concentration beside the values); actives 0.49% (n = 340,000); AlphaScreen GST-E1A/His-CtBP binding, 1536-well; hits give low values; control for the full effect not named in the record; CtBP / adenovirus E1A interaction (AlphaScreen); in the data active means activity change below about -65%; inconclusive means about -30% to -65%; inactive means above about -30%; note: % is set by controls: 0 for no effect and ±100 for the full control effect; compound concentration not given in the record
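AlphaScreen with 125 nM GST-E1A and 125 nM His-CtBP (5X stocks) in Tris pH 8.0, 300 mM NaCl, BSA, Tween 20, TCEP. Compounds preincubated 2 h at 37 deg C, then glutathione donor/nickel acceptor beads added for 1 h at 37 deg C in dark.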
Numbers without * were called inactive; u = inconclusive; x = not tested or not shown; & = joins results of further samples; [ ] = another dose, or the depositor's remark. This is a random part of the collection; any-hit rate near 1%.

SMILES	TRPML1 blocker	TRPML1 agonist	D2 agonist	PINK1 expr mod	Six1-Eya2 inh	CtBP-E1A blk
CCCCN1C(N)=NC[C@@H]1CC1CCCCC1	-3	-0.7	-1.0	4.4%	0	-1
Cc1ccc(-c2ccc(CCC(=O)O)n2-c2cccc(O)c2)cc1	16&0	0.3&1.8	0.6	1.4%	-4	-3
Fc1ccccc1NC(=S)Nc1cccnc1	5	1.0	-0.5	-1.1%	12	-1
O=C(CN1CCN(Cc2ccccc2)CC1)N/N=C/c1cccnc1	-6	0.1	-2.2	2.0%	2	x
Cc1oc2ncn(C)c(=O)c2c1C(=O)NCc1ccc(Cl)cc1	1	0.2	x	0.3%	x	x
CC(C)Oc1ccc(CNS(=O)(=O)c2ccc(-c3cc(C(F)(F)F)on3)s2)cc1	32	-0.2	x	2.1%	x	x
O=C(NCCN1C(=O)S/C(=C\c2ccc(OC(F)F)cc2)C1=O)[C@@H]1CCCN1C(=O)c1cccs1	-14	0.9	-2.8	-1.0%	0	1
COc1cccc(NC(=O)Cc2cn(C)c3ccccc23)c1	-2	0.6	-0.4	-1.1%	-4	-2
S=C1NC(C23CC4CC(CC(C4)C2)C3)=CC(c2ccc3c(c2)OCO3)N1 (configuration not stated)	22	0.9	-4.0	-0.4%	-3	5
O=C(O)C1Cc2ccccc2CN1C(=O)COc1ccc(Br)cc1 (configuration not stated)	-2	-0.3	-6.8	-1.0%	-11	1
CCOC(=O)C1(CC2CC2)CCN(Cc2cc(Cl)c(O)c(OC)c2)CC1	36	0.3	-2.0	-1.1%	-7	0
C=CCOc1cccc(C2c3c(oc4ccc(F)cc4c3=O)C(=O)N2CCCN2CCOCC2)c1 (configuration not stated)	21	-0.1	4.6	0.6%	1	3
Cc1ccc(/C=C/C(=O)OCC(=O)N(C)c2c(N)n(Cc3ccccc3)c(=O)[nH]c2=O)o1	47	-0.6	-1.8	-0.7%	8	1
COc1ccccc1CNC(=O)c1ccc(CSc2nc3ccncc3n2Cc2cccc(F)c2)cc1	16	1.7	x	1.3%	x	x
CC1CCN(CCCN2C(=O)C3C(C(=O)Nc4ccc(Cl)cc4)C4C=CC3(O4)C2C(=O)NC2CCCCC2)CC1 (configuration not stated)	-15	-0.2	2.4	2.9%	11	3
COc1cc(OC)cc(C(=O)OCC(=O)NCc2ccc3c(c2)OCO3)c1	21	0.3	-4.8	3.6%	2	-14
O=C(CSc1nc(-c2ccccc2)cs1)N1CCN(C(=O)c2ccco2)CC1	-13	-0.2	0.3	-1.2%	-2	-4
Cc1ccc(C(=O)Nc2ccc3nccnc3c2)cc1	-12	-0.2	-3.1	1.3%	-17	-5
O=C(O)COc1ccccc1/C=N/NC(=O)CSc1nnc(-c2ccc(Cl)cc2)n1C1CCCCC1	5	-0.9	-4.0	-0.2%	0	x
COc1ccc(C(=O)/C=C/c2cn(CC(O)CN3CCN(C)CC3)c3ccccc23)cc1OC (configuration not stated)	-14	3.2	-0.2	-2.1%	10	3
COc1ccccc1N1CCN(C2CCN(C(=O)c3cc(OC)c(OC)c(OC)c3)CC2)CC1	-9	-1.2	2.9	-0.1%	3	1
O=C(CSCc1cnn(-c2ccccc2)c1-n1cccc1)NCC1CCCO1 (configuration not stated)	-2	1.0	-1.2	-0.3%	-6	-3
C[C@H](CO)N1C[C@H](C)[C@@H](CN(C)S(=O)(=O)c2cccs2)Oc2ccc(NC(=O)NC3CCCCC3)cc2C1=O	3	-0.3	-1.3	3.0%	1	0
Cc1ccc(C(C)C)c(OCC(=O)NNC(=O)CC2OC(=O)c3ccccc32)c1 (configuration not stated)	-4	0.9	-3.5	0.7%	2	3
COc1cccc(OC)c1OCCN1CCCC1	-1	-0.8	-2.0	1.5%	20	x

Other structures follow:
SMILES	TRPML1 blocker	TRPML1 agonist	D2 agonist	PINK1 expr mod	Six1-Eya2 inh	CtBP-E1A blk
COc1cc(CNCCO)cc(Br)c1OCc1ccccc1	-7	-0.2	-1.9	1.8%	1	-2
CC[C@]12c3[nH]c4cc(-c5ccco5)ccc4c3CCN1C(=O)[C@@H](CC(=O)NCCN1CCOCC1)C[C@@H]2C(=O)N1CCN(C(=O)C2CC2)CC1	27	-0.5	-0.6	-0.8%	2	0
CCOC(=O)CC[C@H](NC(=O)Cn1cnc(C(=O)Nc2ccc(C)c(C)c2)n1)C(=O)OCC	-13	-0.7	-1.5	1.0%	0	2
CCCCC(=O)Nc1ccc(N2CCN(S(C)(=O)=O)CC2)cc1	0	-0.7	-0.7	-0.2%	3	-1
CS(=O)(=O)Nc1nc2n(n1)C(c1ccc(F)cc1)CC(c1ccccc1)N2 (configuration not stated)	x	x	1.3	-0.1%	4	-2
C=CCOc1c(Br)cc(/C=N\n2nnnc2N)cc1OC	-2	1.7	1.5	-0.4%	6	-14
O/N=C/c1ccc(OCC(O)COc2ccc(/C=N/O)cc2)cc1	2	-0.6	0.2	1.9%	-9	-1
Cc1ccc(S(=O)(=O)/C(C#N)=C/c2c(N3CC(C)OC(C)C3)nc3ccccn3c2=O)cc1 (configuration not stated)	19	4.6	-2.7	-0.4%	-5	-17
Cc1ccc(OCC(=O)N2CCc3ccccc3C2)cc1C	-15	-0.4	-4.9	2.4%	5	-19
CC(OC(=O)c1ccccn1)C(=O)Nc1ccc(C(F)(F)F)cc1 (configuration not stated)	1	-0.3	1.4	1.9%	-1	-5
COc1ccc(NC2=C3CC(C)CC=C3N(c3ccc(OC)cc3)C2=O)cc1 (configuration not stated)	1	-0.1	0.4	5.1%	-3	0
CC1Cc2ccccc2N1CC(=O)Nc1ccc(Cl)c(S(=O)(=O)N(C)C)c1 (configuration not stated)	-1	-1.3	-2.5	1.5%	-13	1
O=C(O)C(Cc1c[nH]c2ccccc12)NS(=O)(=O)c1ccc(Cl)cc1 (configuration not stated)	-6	0.6	1.6	5.4%	0	2
CCc1ccc(NC(=O)c2cc(S(=O)(=O)N3CCCCC3)c[nH]2)cc1	88	0.4	x	-2.0%	x	x
CC1CCCC(C)N1/N=C/C=C/c1ccccc1[N+](=O)[O-] (configuration not stated)	3	1.5	1.3	3.0%	u	-10
O=C1CCCN1CCCNC(=S)Nc1ccccc1Cl	15	-1.2	-1.4	0.4%	5	-11
COc1cc(OC)cc(-c2nc3cc(C)ccc3o2)c1	-7	0.6	-2.6	17%	12	26
CCC1CN(C(=O)Nc2ccccc2F)c2cc(C)ccc2O1 (configuration not stated)	1	1.4	x	0.8%	x	x
O=C(O)CC(NC(=O)c1cccc([N+](=O)[O-])c1)c1ccc2c(c1)OCO2 (configuration not stated)	12	-1.2	-4.4	3.0%	7	3
C=CCNC(=S)NNC(=O)c1ccc2c(c1)OCO2	30	0.4	-1.2	-3.4%[38.3 µM]	-2	2
CC1CCC(NC(=O)CCNC(=O)c2ccc(Br)cc2)CC1 (configuration not stated)	5	0.0	3.2	2.0%	7	-2
O=C1c2ccc([N+](=O)[O-])cc2C(=O)N1c1ccc([N+](=O)[O-])cn1	3	-0.8	-2.8	0.3%	0	x
Cc1cccc(NC(=O)C2CCN(S(=O)(=O)c3cccc4nsnc34)CC2)c1C	0	-0.7	x	4.7%	x	x
Cc1ccc(C)c(N2CC(C(=O)Nc3nccs3)CC2=O)c1 (configuration not stated)	31	0.3	0.4	-2.4%	5	-5
COc1ccc(C2CC(C)(c3ccc(OC)cc3)Nc3ccccc3N2)cc1 (configuration not stated)	32	-0.5	-7.3	4.1%	u	-18

(continued)
SMILES	TRPML1 blocker	TRPML1 agonist	D2 agonist	PINK1 expr mod	Six1-Eya2 inh	CtBP-E1A blk
CNc1ccc(/C=C/C(=O)c2ccc3c(c2)OCCO3)cc1[N+](=O)[O-]	3	2.4	-1.3	-3.0%	7	2
CC(NC(=O)COC(=O)CN1C(=O)C2CCCCC2C1=O)c1ccccc1 (configuration not stated)	-4	0.5	-0.3	0.0%	2	6
Cc1nc2c(sc3nc4c(cc32)COC(C)(C)C4)c(=O)n1Cc1ccccc1	15	0.4	2.2	-1.4%	8	-9
Cc1ccc(CNC(=O)CCNS(=O)(=O)c2ccc3c(c2)oc(=O)n3C)cc1	5	0.6	x	0.2%	x	x
CCN(CC)CCSc1nnc2c3cc(F)ccc3n(C)c2n1	10	-0.4	x	0.9%	x	x
CCCN(CCC)S(=O)(=O)c1ccc(NS(=O)(=O)c2ccc(F)cc2)cc1	-11	-0.2	-2.1	0.2%[38.3 µM]	1	5
Cc1onc(-c2c(F)cccc2Cl)c1C(=O)Nc1cc2cc([N+](=O)[O-])ccc2oc1=O	x	-0.9	-6.4	0.6%	-19	-18
OC1CN=C2CCCc3c2n(c2ccc(Cl)cc32)C1 (configuration not stated)	2	1.0	-9.8	3.0%	-2	-3
Cc1cn([C@H]2C[C@H](O)[C@@H](CCC(=O)NCc3ccc4c(c3)OCO4)O2)c(=O)[nH]c1=O	-27	-0.5	-2.6	7.8%	21	25
COC(=O)[C@@]1(Cc2ccc(F)cc2)[C@H]2c3cc(C(=O)N(C)C)n(CCSCCO)c3C[C@H]2CN1C(=O)c1ccccc1	-1	1.1	-7.0	0.9%	-2	-2
CCCCN1C(=O)c2ccc(C(=O)Nc3ccc(C)c(S(=O)(=O)N(C)C)c3)cc2C1=O	-6	0.3	1.0	-1.1%	-14	-9
CCC(C)(C)n1nnnc1C(c1ccccc1)N1CCN(C2CCCC2)CC1 (configuration not stated)	11	-1.1	-0.8	-1.1%	8	1
Cc1ccc2oc(=O)c(/C=C(\O)c3ccccc3)nc2c1	17	0.8	u	1.5%	3	4
CC1(C)OC(=O)C(=Cc2ccc(-c3ccc(S(N)(=O)=O)cc3)o2)C(=O)O1	-15	0.7	-0.8	0.8%	-6	0

Rewritten with values under each structure: entries from further up
Value order – TRPML1 blocker | TRPML1 agonist | D2 agonist | PINK1 expr mod | Six1-Eya2 inh | CtBP-E1A blk
Cc1ccc(S(=O)(=O)/C(C#N)=C/c2c(N3CC(C)OC(C)C3)nc3ccccn3c2=O)cc1 (configuration not stated)
 : 19 | 4.6 | -2.7 | -0.4% | -5 | -17
Cc1ccc(OCC(=O)N2CCc3ccccc3C2)cc1C
 : -15 | -0.4 | -4.9 | 2.4% | 5 | -19
CC(OC(=O)c1ccccn1)C(=O)Nc1ccc(C(F)(F)F)cc1 (configuration not stated)
 : 1 | -0.3 | 1.4 | 1.9% | -1 | -5
COc1ccc(NC2=C3CC(C)CC=C3N(c3ccc(OC)cc3)C2=O)cc1 (configuration not stated)
 : 1 | -0.1 | 0.4 | 5.1% | -3 | 0
